Rango complex inh: inhibitors of Rango-importin beta complex formation | Q14974 | actives 0.031% (n = 340,000) | Rango CFP/YFP FRET sensor + importin beta, 45 min | Potency, µM (doses to about 92.2 µM), for the others: top-dose inhibition of complex formation | AID 540263; active = rising FRET ratio curve, often small or poorly fitted; inconclusive = mostly compound fluorescence or quenching in the first reads; inactive = flat curves in all reads;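 note: potency is the fitted concentration of half-maximal effect; 0% = DMSO wells and 100% = buffer wells lacking importin beta; nearly all actives have a fitted effect of over 15% in size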
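FRET biosensor Rango (snurportin 1 IBB between N-terminal EYFP and C-terminal Cerulean), 50 nM in PBS/1 mM DTT/0.02% Tween-20/0.1% BSA, preincubated 5 min RT with compound; 0.125 microM importin beta added, 45 min RT, CFP/YFP FRET ratio read.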
miR-21 reporter: raises the signal of a miR-21 reporter. 340,000 tested, under 10 active. HeLa miR-21 FLuc reporter, luciferase, 48 h. Potency, µM (top dose mostly 38.3 µM), for the others: top-dose reporter change, positive = more light; active = well fitted rising curve with a large enough effect; inconclusive = small, poorly fitted or top-dose-only effect; inactive = no such curve, though single readings can be large or run the other way;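 note: % of control where 0% means no effect; miR-21 action dims this reporter so a rising signal means less miR-21 action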
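HeLa miR-21-FLuc reporter line, endogenous miR-21; 2000 cells/well in DMEM/10% FBS; compound titration up to ~40uM final, 48 h, 37 degree Celsius; luciferase detection reagent, 15 min lysis, CCD luminescence.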
GLA inh pH 4.5: alpha-galactosidase A (human) inhibition, pH 4.5; activity change, negative = inhibition, % at 105 µM; purified enzyme, 4-MU-alpha-Gal fluorescence, pH 4.5; 230,000 tested, under 10 active; AID 1467; P06280; inconclusive = small, poorly fitted or top-dose-only inhibition, or a rising curve; inactive = flat fitted curve, though single readings scatter; no compound was filed as active;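 note: 0% = full activity with enzyme and -100% = basal without enzyme; dose as in the result columns while the protocol names 77 µM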
Target sequence (P06280 whole entry, looked up): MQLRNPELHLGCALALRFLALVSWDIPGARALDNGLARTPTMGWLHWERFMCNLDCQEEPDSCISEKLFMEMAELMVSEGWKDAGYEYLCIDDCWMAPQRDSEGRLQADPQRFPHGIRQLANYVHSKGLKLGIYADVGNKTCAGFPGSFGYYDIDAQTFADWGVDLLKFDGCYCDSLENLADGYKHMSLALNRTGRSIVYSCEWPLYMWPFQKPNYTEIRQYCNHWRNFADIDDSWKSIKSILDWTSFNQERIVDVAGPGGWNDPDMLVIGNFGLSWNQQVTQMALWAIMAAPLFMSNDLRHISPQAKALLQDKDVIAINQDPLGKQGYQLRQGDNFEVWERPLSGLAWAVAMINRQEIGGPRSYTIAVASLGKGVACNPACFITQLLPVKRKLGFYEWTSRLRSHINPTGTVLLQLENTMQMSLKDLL
Rango release inh: inhibitors of RanGTP-induced Rango-importin beta complex dissociation. Potency, µM (highest dose often 46.1 µM), without a hit: top-dose activity change, negative = inhibition. actives 0.071% (n = 340,000). Biochemical FRET Rango-importin beta, RanGTP-induced dissociation; active means falling FRET ratio curve, often poorly fitted, with flat reads before Ran was added; inconclusive means other falling curves, or compound fluorescence or quenching; inactive means flat or rising ratio curve;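 note: potency is the fitted concentration of half-maximal effect; % of control where 0% means no effect; nearly all actives have a fitted effect of over 45% in size; -100% = wells without RanGTP and RCC1; the record marks most hits as doubtful in a second field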
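Recombinant Rango FRET biosensor (EYFP–snurportin 1 IBB–cerulean CFP10) at 0.1 uM premixed with 0.25 uM importin beta in PBS, 1 mM DTT, 0.02% Tween-20, 0.1% BSA. Compound added 5 min; RanGTP-RCC1 (0.6 uM Ran, 2 mM GTP, 0.2 uM RCC1) then triggers release, read at 45 min.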
* hit, by the source's call; ? = inconclusive; nt = not tested or not shown; & = joins results of further samples. This is a subset, so the mix of outcomes need not match the whole.

SMILES	Rango complex inh	miR-21 reporter	GLA inh pH 4.5	Rango release inh
CCOc1ccc(C(=O)NCCN2CCOCC2)cc1	0.8%	1%	0	0%
Cc1ccc(CNCCCn2cnc(C(=O)Nc3ccc(C)c(C)c3)n2)o1	0.1%	nt	nt	0%
O=C(NCCNCCO)C1(C(F)(F)F)C/C(=C\CCO)CCCO1 (configuration not stated)	-0.9%	nt	nt	2%
O=C(Cn1c(=S)[nH]c2ccccc21)c1ccccc1	0.5%	17%	-4	-12%
COc1ccc(C(=O)NCc2cccnc2)cc1S(=O)(=O)N1CCOCC1	3.8%	-1%	-3	0%
COc1ccc(OC)c(NC(=O)C2CC(=O)N(Cc3ccco3)C2)c1 (configuration not stated)	-0.1%	nt	nt	15%
COCC(=O)N1CCC(Oc2ccc(C(=O)N3CCSCC3)cc2)CC1	0.5%	-2%	nt	-1%
Cc1ccc(CNC(=O)CCNC(=O)Cn2ccc3ccccc3c2=O)cc1	2.0%	-5%	-24	-17%
C/C(CC(=O)Nc1cccnc1)=N\NC(=O)C(=O)NC(C)C	-4.5%	-2%	-8	0%
N#CCc1nc(-c2cc3ccccc3oc2=O)cs1	-0.6%	-33%	4	-3%
Cc1ccc(N2C(=O)c3oc4ccccc4c(=O)c3C2c2cccc(O)c2)nc1 (configuration not stated)	3.0%	nt	nt	7%
O=C(O)c1c[nH]c2ccc(S(=O)(=O)N3CCN(c4ccc(F)cc4)CC3)cc2c1=O	-4.7%	-1%	-4	-6%
O=c1[nH]c2ccc(Br)cc2c(-c2ccccc2)c1N1CCOCC1	0.7%	-1%	13	-26%
CC(C)(C)c1ccc(S(=O)(=O)NCC2CCCO2)cc1 (configuration not stated)	1.0%	-2%	nt	20%
c1cncc(-c2nnc(SCc3nc4ccccc4[nH]3)o2)c1	?	-6%	-2	-10%
CC1CCN(CCNC(=O)c2ccc3c(=O)n(Cc4ccc(Cl)cc4)c(=S)[nH]c3c2)CC1	4.3%	-5%	nt	-2%
Cc1ccc(OCCCNC2CCCC2)cc1	-0.4%	-6%	-2	0%
CC(C)C(=O)Nc1nnc(CCN2CCCCC2)s1	9.9%	-1%	-2	19%
Cc1c(NC(C)C)c(=O)n(-c2ccccc2)n1C	-2.9%	nt	-13&-5	2%
CCCC1(c2ccccc2)NC(=O)N(CC(=O)c2[nH]c(C)c(C(=O)OCC)c2C)C1=O (configuration not stated)	0.5%	9%	-23	8%
ClCC1CSC(=NC23CC4CC(CC(C4)C2)C3)O1 (configuration not stated)	-1.4%	0%	-1	18%
CCCC1=C(C(=O)OCC)C(c2ccc(OC)c(C)c2OC)C(C#N)=C(N)O1 (configuration not stated)	5.7%	-15%	-5	-2%
O=C(/C=C/c1c[nH]c2ccccc12)c1ccccc1	?	-45%	3	?
CS(=O)(=O)Nc1ccc(C(=O)Nc2ccc3ccccc3c2)cc1	-1.7%	-59%	nt	-6%
CCOc1ccc(C(C(=O)NC2CCCCC2)N(C(=O)c2ccccn2)c2cccnc2)cc1 (configuration not stated)	0.2%	0%	12	4%

(more compounds)
SMILES	Rango complex inh	miR-21 reporter	GLA inh pH 4.5	Rango release inh
COc1ccc(N2C(=O)CC(NNc3ncc(Cl)cc3Cl)C2=O)cc1 (configuration not stated)	?	4%	-14	-27%
COc1ccc(C2C3=C(CCCC3=O)N(CC(=O)O)C3=C2C(=O)CCC3)cc1	?	0%	nt	?
COC(=O)c1ccccc1NC(=O)Cn1cc(Br)cn1	-0.1%	-7%	7	1%
Oc1ccc(C=NCCc2ccccc2)cc1	1.2%	0%	nt	-10%
O=C1NC(=O)/C(=C\c2ccc(Cl)cc2Cl)N1	0.0%	nt	nt	1%
O=C(CSc1ccccn1)Nc1ccc(N2CCOCC2)cc1	-1.4%	-2%	7	-8%
O=C(Cn1c(=O)oc2ccccc21)N1CCCC1	-1.8%	-2%	nt	12%
O=c1cc(N2CCC3(CC2)OCCO3)[nH]c(=O)n1-c1ccc(Br)cc1	-3.1%	-8%	2	1%
Cc1c(Cl)c(C(F)(F)F)nn1CC(=O)NCc1ccccc1	-6.9%	-7%	-1	-1%
CN(C)C(=S)SCC(=O)Nc1cccc(C(F)(F)F)c1	0.7%	-23%	5	1%
CC1CCc2nc3ccc(S(=O)(=O)N4CCC(C(=O)NC(C)c5ccccc5)CC4)cc3c(C(=O)O)c2C1 (configuration not stated)	?	-1%	nt	-3%
CN(/N=C/c1ccccc1O)C(=S)c1ccccc1	-2.0%	-22%	nt	-8%
CCC12CC3CC(C1)CC(C(=O)NNC(N)=O)(C3)C2	3.6%	-15%	4	1%
Cc1cccnc1N(C(=O)Nc1cccc(Cl)c1)C1=NCC(C)(C)S1	-1.3%	-25%	-12	20%
C=CCOc1ccc(/C=N/NC(=O)CN2CCOCC2)cc1OCC	4.0%	4%	3	1%
COc1ccc(C2C(C#N)=C(N)N(c3ncn[nH]3)C3=C2C(=O)CCC3)cc1 (configuration not stated)	5.3%	-2%	1	-3%
Cc1cc(=O)[nH]c(SCC(=O)Nc2cccc(C(F)(F)F)c2)n1	-0.5%	-9%	-10	-18%
CCN(CC)CCn1c2ccccc2c2nc(C)sc21	0.6%	-6%	-6	2%
COc1ccccc1NC(=O)c1ccc(C)c(S(=O)(=O)N2CCCCC2)c1	-4.2%	23%	nt	13%
FC(F)(F)c1cccnc1Oc1ccc(C2=NCCS2)cc1	9.1%	-40%	-10	13%
O=C(CSc1nnc(CNC(=O)c2cccc(C(F)(F)F)c2)o1)NCC1CCCO1 (configuration not stated)	1.0%	-4%	nt	6%
O=C(N/N=C/c1cn[nH]c1-c1ccc(Cl)cc1)c1ccc([N+](=O)[O-])cc1	-1.7%	6%	-17	14%
Cc1ccccc1NC(=O)COC(=O)c1ccc(S(=O)(=O)N2CCCC2)cc1	-3.6%	nt	nt	-4%
CC(C)N(C(=S)Nc1cccc(S(=O)(=O)N(C)C)c1)c1ccccc1	1.3%	-3%	-18	12%
Cc1nn(-c2ccccc2)c2nc3c(cc12)C(=O)CCC3	4.1%	1%	4	8%

Further compounds.
SMILES	Rango complex inh	miR-21 reporter	GLA inh pH 4.5	Rango release inh
Cc1ccc(C(=O)NCC(c2ccco2)N2CCc3ccccc3C2)cc1 (configuration not stated)	-2.0%	nt	nt	-1%
Cc1cc(C)nc(/N=C(\N)Nc2cccc(OCc3ccccc3)c2)n1	0.4%	?	-2	5%
C=C1CCC[C@]2(C)C[C@H]3OC(=O)C(CNCC(C)C)[C@H]3CC12 (some centres not stated)	-0.1%	8%	nt	11%
Cc1ccc(S(=O)(=O)NC(=O)NCc2ccccn2)cc1	1.0%	-4%	1	-2%
O=c1ccn(Cc2ccccc2)c(SCc2ccccc2)n1	?	nt	nt	-21%
O=C(Cn1c(NCCO)nc2ccccc21)NCCc1ccc(F)cc1	2.6%	-2%	-11	7%
Cc1cc(C)n(Cc2ccc(C(=O)N/N=C/c3ccc(-c4ccc([N+](=O)[O-])cc4)o3)o2)n1	?	-7%	nt	?
CCOC1=C(C#N)CC2(CC1)c1ccccc1-c1ccccc12	1.8%	nt	nt	1%
Cc1ccc(NC(=O)CN2C(=O)NC(C)(c3ccc4c(c3)OCO4)C2=O)cc1 (configuration not stated)	0.1%	nt	nt	8%
O=C(c1ccco1)N1CCN(C(=O)C2CCN(S(=O)(=O)Cc3ccccc3)CC2)CC1	0.1%	-5%	4	-3%
COc1cc(C(=O)NNC(=O)COc2ccc(Cl)cc2)ccc1OCC(=O)N1CCOCC1	-0.7%	nt	nt	-18%
O=C(N/C(=C/c1cccnc1)C(=O)N1CCOCC1)c1ccccc1Br	3.2%	-10%	-9	-6%
Cc1ccc(Nc2cc(C)nc(NCc3ccccc3)n2)cc1	-0.9%	13%	-16	-21%
CCOC(=O)CN1CC23C=CC(O2)C(C(=O)NCCc2ccccc2)C3C1=O (configuration not stated)	0.5%	-5%	-3	19%
c1ccc2c(c1)nc(Nc1ccc3c(c1)OCO3)c1nnnn12	?	-48%	-1	?
CC(C/C=N/NC(=O)COc1cc(Cl)ccc1Cl)c1ccccc1 (configuration not stated)	-2.2%	0%	0	-2%
CCOC(=O)CN(c1cccc(C(C)=O)c1)S(C)(=O)=O	3.5%	-2%	6	5%
O=C(c1cccnc1)C1Cc2ccccc2C1=O (configuration not stated)	-0.6%	-13%	-7	-2%
C=CCn1cc(/C=N\NC(=O)c2cc3c(ccc4ccccc43)o2)c2ccccc21	?	-4%	-7	?
CCn1c(C)nnc1SCC(=O)Nc1ccc(C(C)=O)cc1	0.2%	0%	nt	-23%
CCOc1ccc2nc(SCC(=O)Nc3nonc3C)[nH]c2c1	1.1%	-5%	-1	16%
O=c1c2ccccc2ncn1-c1ccccc1[N+](=O)[O-]	0.4%	-10%	nt	3%
O=C(CCc1ccc(S(=O)(=O)N2CCOCC2)cc1)N/N=C/c1cccc(O)c1	-3.7%	-9%	3	-6%
Cc1ccc(C)c(OCC(=O)N/N=C/c2c(C)nn(-c3ccccc3)c2Cl)c1C	-2.4%	-6%	-10	16%
O=C(Cn1c(=O)n(CCC(=O)N2CCCCC2)c(=O)c2sccc21)NCc1ccccc1	-0.1%	1%	nt	5%

Molecules listed so far with a COOH group (three):
SMILES	Rango complex inh	miR-21 reporter	GLA inh pH 4.5	Rango release inh
O=C(O)c1c[nH]c2ccc(S(=O)(=O)N3CCN(c4ccc(F)cc4)CC3)cc2c1=O	-4.7%	-1%	-4	-6%
COc1ccc(C2C3=C(CCCC3=O)N(CC(=O)O)C3=C2C(=O)CCC3)cc1	?	0%	nt	?
CC1CCc2nc3ccc(S(=O)(=O)N4CCC(C(=O)NC(C)c5ccccc5)CC4)cc3c(C(=O)O)c2C1 (configuration not stated)	?	-1%	nt	-3%

Two neighbouring records out of the list so far, for reference:
SMILES	Rango complex inh	miR-21 reporter	GLA inh pH 4.5	Rango release inh
CCOc1ccc(C(=O)NCCN2CCOCC2)cc1	0.8%	1%	0	0%
Cc1ccc(CNCCCn2cnc(C(=O)Nc3ccc(C)c(C)c3)n2)o1	0.1%	nt	nt	0%

Next section
SMILES	Rango complex inh	miR-21 reporter	GLA inh pH 4.5	Rango release inh
O=C(NCC(Cl)c1ccc2ccccc2c1)c1c(F)cccc1F (configuration not stated)	0.3%	1%	nt	-10%
Cc1c(Cl)cccc1NC(=O)CN1CCN(CCO)CC1	-4.1%	-2%	8	7%
CCSc1nnc(N)s1	?	1%	-2	29%
CC(C)(C)C(CO)NC(=O)c1ccc[nH]1 (configuration not stated)	3.4%	nt	nt	3%
CCOC(=O)/C(C#N)=C/c1cc2ccccc2nc1N1CCOCC1	3.9%	-2%	1	10%
Cc1cccc2nc(-c3ccccc3)nc(N3CCC(O)(c4ccc(Cl)cc4)CC3)c12	1.7%	16%	-9	15%
Cn1c(CNC(=O)c2ccc(Cl)cc2)nnc1SCC(=O)NC1CCCC1	0.2%	-2%	nt	24%
O=C(Oc1ccc2c(c1)O/C(=C\c1ccncc1)C2=O)c1ccccc1	?	-3%	7	?
COc1ccccc1-n1cnc2cc(C(=O)NCC3CCCO3)ccc21 (configuration not stated)	3.2%	-14%	-3	5%
COc1cccc(C(=O)NCCS(=O)(=O)N2CCN(C(=O)c3ccco3)CC2)c1	0.6%	nt	nt	-5%
C=CCOc1ccc(CNc2ccc(NC(=O)CCC)cc2)cc1OCC	-0.3%	-15%	-4	15%
CN(C)NC(=S)NC1(C)CCS(=O)(=O)C1 (configuration not stated)	0.6%	0%	-7	3%
CC(C)OC(=O)c1c(F)c(F)c(N2CCOCC2)c(F)c1F	-1.1%	-7%	6	-11%
CCCCN1C(=O)CC(Sc2ncccc2C(=O)O)C1=O (configuration not stated)	3.1%	-2%	4	-4%
CCOC(=O)c1cc2c(ccn2C)n1CC(=O)N1CCN(c2ccccc2)CC1	-1.8%	0%	-2	-5%
CCC1=Nc2cc(C(=O)O)ccc2Sc2ccc(Cl)cc21	1.9%	-10%	-2	-10%
CCCCOc1ccc(Cc2n[nH]c(=S)n2N)cc1	-2.0%	-1%	0	-6%
NC1=NC[C@@H](Cc2ccc(O)cc2)N1CCc1cccc2ccccc12	0.4%	10%	8	9%
COc1ccc2[nH]c(C(=O)O)c(CCNC(=O)/C=C/c3ccc(O)c(OC)c3)c2c1	4.8%	0%	nt	-15%
N#CCOC(=O)c1c2c(nc3ccccc13)CCC2	-0.3%	-1%	4	-3%

Assay outcomes as filed in PubChem.
